Screening data as filed in PubChem BioAssay.
Vif TR-FRET = inhibitors of Vif binding to APOBEC3G peptide, primary screen, biochemical, TR-FRET, GST-Vif 1-94, biotin-A3G peptide, dose response retest (AID 1117319) | Virion infectivity factor (Human immunodeficiency virus type 1 group M subtype B (isolate … | TR-FRET GST-Vif / biotin-A3G peptide binding; higher % means a stronger effect; test concentration not given here; strong numbers were not always called active | inhibition, %, or IC50 in µM where a hit was titrated | actives 0.57% (n = 260,000);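 active = above the screen mean plus three standard deviations and confirmed in dose response; inconclusive = results disagree or hit not tested in dose response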;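 note: Vif residues 1-94 fused to GST binding biotinylated APOBEC3G peptide 110-148; 0% = full assay without inhibitor and 100% = GST in place of GST-Vif; retest series ran down from 100 µM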
Beta2AR agonist = beta2AR agonists driving receptor internalization, primary screen, cell-based, FAP fluorogen, flow cytometry; response, % (test concentration not listed); Beta-2 adrenergic receptor (Homo sapiens), P07550; AID 504454, 2011; actives 0.43% (n = 340,000); Am2.2-beta2AR cells; reference of the scale not given here;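 active = response above a set limit, near 3 SD of response in nonfluorescent compounds, cut at about 42% in these data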;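 note: stock transfer was 100 nL into about 11 µL; a reference agonist was the positive control; negative values mostly stem from fluorescent compounds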
Target sequence (P07550 whole entry, looked up): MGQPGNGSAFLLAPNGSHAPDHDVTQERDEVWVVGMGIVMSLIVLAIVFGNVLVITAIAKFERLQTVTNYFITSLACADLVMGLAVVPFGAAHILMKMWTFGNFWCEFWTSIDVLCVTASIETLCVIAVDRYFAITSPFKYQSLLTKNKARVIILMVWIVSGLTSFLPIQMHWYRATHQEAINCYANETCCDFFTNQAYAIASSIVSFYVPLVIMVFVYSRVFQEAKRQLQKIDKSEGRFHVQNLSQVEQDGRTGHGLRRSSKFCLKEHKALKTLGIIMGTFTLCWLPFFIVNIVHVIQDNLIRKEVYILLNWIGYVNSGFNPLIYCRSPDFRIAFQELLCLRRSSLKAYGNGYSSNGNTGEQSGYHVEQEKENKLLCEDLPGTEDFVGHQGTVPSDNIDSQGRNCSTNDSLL
Bfl-1 A1 inh = caspase 3/7 activation in MEF A1-2A-BIM cells, primary screen, A1 inhibitor project, cell-based, luminescence, HTS; Caspase-Glo 3/7 luminescence, 3 h; percent of clofoctol response, vehicle zero; caspase activation, % (concentration not given with the values); actives 0.066% (n = 330,000);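 active = over half of replicate activation scores above 10%, or exactly half above 10 with the replicate mean above 10; inconclusive = replicate mean below 10 yet half the replicates above 10; inactive = over half of replicates below 10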;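 note: wells of about 30 µL received 50 nL stock; many hits fall short of the cut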
UCH37 inh = inhibitors of human UCH37 deubiquitinase, primary screen, biochemical, Ub-AMC cleavage, fluorescence. inhibition, % (no concentration beside the values). AID 588478, 2011. actives 0.33% (n = 330,000). purified proteasome/UCH37. Ubiquitin carboxyl-terminal hydrolase isozyme L5 (Homo sapiens), Q9Y5K5;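 active = mean of two replicates above 20%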;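 note: 0% = compound-free wells with enzyme and 100% = wells lacking proteasome; stock transfer was 100 nL into about 20 µL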
Target sequence (Q9Y5K5 whole entry, looked up): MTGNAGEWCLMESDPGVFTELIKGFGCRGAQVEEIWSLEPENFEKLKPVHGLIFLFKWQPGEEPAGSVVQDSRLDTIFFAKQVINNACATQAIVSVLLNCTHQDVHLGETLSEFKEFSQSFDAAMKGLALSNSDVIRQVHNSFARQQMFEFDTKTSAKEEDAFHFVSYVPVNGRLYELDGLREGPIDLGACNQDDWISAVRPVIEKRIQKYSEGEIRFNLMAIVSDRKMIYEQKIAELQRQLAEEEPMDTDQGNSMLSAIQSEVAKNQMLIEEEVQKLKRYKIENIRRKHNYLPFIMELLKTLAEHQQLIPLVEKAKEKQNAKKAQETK
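assay system = human UCH37 enzyme supplied as purified proteasome complex | amount = proteasome at 0.15 nM in the dispensed enzyme solution | schedule = 30 min compound-proteasome preincubation then 25 min substrate reaction, room temperature | measured by = fluorescence, ex 355 nm, em 460 nm | benchmarks = no-proteasome wells (full inhibition) and compound-free wells (no inhibition)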
Ecoli growth = E. coli growth inhibition, primary screen, OD600; Escherichia coli growth, 23 h; active compounds read low; OD600 absorbance (no concentration beside the values); actives 0.21% (n = 330,000); AID 1053175, 2014;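 active = OD600 absorbance below the run mean of sample wells minus 3.6 SD, in any replicate, cut at about 0.56 in these data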;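 note: stock transfer was 300 nL into about 60 µL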
HNF4A DNA FP = change in binding of human HNF4A to DNA, primary screen, biochemical, fluorescence polarization, FITC-DNA; actives 0.3% (n = 360,000); activity change, % at 10 µM; Hepatocyte nuclear factor 4-alpha (Homo sapiens), P41235; 1 h; in the data active = activity change above about 30%, passing the limit was not always enough;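 note: controls were the assay level and a saturating level of protein; the project sought stronger binding though the title names inhibitors; some compounds called inactive have numbers as strong as hits; positive values seem to mean higher polarization but the record does not say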
LANA-H2A inh = blockers of LANA interaction with H2A/H2B – biochemical, FP readout, HTS, primary screen | actives 0.6% (n = 320,000) | Protein LANA1 (Human herpesvirus 8 type P (isolate GK18)), Q9QR71 | cell-free LANA-H2A/H2B peptide, fluorescence polarization | AID 2629, 2010 | inhibition, % (concentration not given with the values); in the data active = inhibition mostly above about 10%, no sharp cut-off; inactive = mostly below about 6.7%;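 note: stock transfer was 7.5 nL into about 10 µL; 0% = median of vehicle wells and 100% = median of positive control wells; one replicate is shown; the record names a cut of 25% in any replicate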
* marks the source's active call; other numbers are inactive results; u = inconclusive; x = no result given; & = joins results of further samples.

structure	Vif TR-FRET	Beta2AR agonist	Bfl-1 A1 inh	UCH37 inh	Ecoli growth	HNF4A DNA FP	LANA-H2A inh
CCCC(=O)n1nc(-c2ccccc2)nc1SC	-2%	7	0.4	x	x	0.3	3.2
O=C(O)CCCC(=O)Nc1nc(-c2ccc(F)cc2)cs1	1%	5	1.1	5.8	0.69	-0.5	-0.5
CC(C)(C)N(Cc1ccccc1)C(=O)CSc1nnc(CNc2ccc(F)cc2)o1	1%	-6	-0.4	1.2	0.73	1.0	-0.7
Cc1cccc(C(=O)NN2C(=O)C3C(c4ccccc4)C=CC(c4ccccc4)C3C2=O)c1 (stereo unspecified)	8%	10	0.7	0.4	0.77	-2.4	-1.3
O=C(Nc1ccc(F)c(F)c1)c1ccccc1	x	-12	-3.8	2.1	0.67	-3.7	3.5
O=C(Nc1ccccc1N1CCOCC1)c1ccc([N+](=O)[O-])o1	0%	1	-2.6	0.4	0.68	3.3	-5.2
Cc1ccc(CN(C(=O)c2csnn2)C(C(=O)NC2CCCC2)c2ccco2)cc1 (stereo unspecified)	x	2	0.8	-1.8	0.68	-3.7	-0.5
O=C(COC(=O)c1cc([N+](=O)[O-])ccc1N1CCOCC1)NC1CCCCC1	-3%	-5	0.9	9.4	0.67	-1.6	1.7
COc1cc2c(cc1OC)CN(C(=O)/C=C/c1ccc(F)cc1)CC2	x	10	0.7	2.8	0.69	0.4	-1.1
O=S(=O)(Nc1ccccc1)c1ccc(F)cc1	6%	4	-0.1	3.8	0.7	-2.2	0.0
CCCN(CC1CC1)C(=O)CSc1nnc(-c2cc(-c3cccs3)nc3ccccc23)o1	9%	0	0.6	-2.5	0.73	-2.4	0.8
Cc1ccc(S(=O)(=O)N(C)CC(=O)O/N=C(\N)c2ccc([N+](=O)[O-])cc2)cc1	18%	2	-0.3	6.9	0.72	-1.8	-3.4
O=C(CCN1C(=O)c2ccccc2C1=O)Nc1sc2c(c1C(=O)NCC1CCCO1)CCC2 (stereo unspecified)	3%	-5	0.2	x	x	0.3	-5.8
CCCCN1C(=O)/C(=C2/C=CC=CN2C)SC1=S	-1%	-11	1.1	14	0.69	-2.7	4.1
Cc1cnc(C(=O)OCC(=O)Nc2cccc(Cl)c2)cn1	1%	2	-0.4	0.7	0.71	4.2	9.7
CC(Oc1ccccc1F)C(=O)NNC(=O)CCNC(=O)c1ccco1 (stereo unspecified)	x	2	-0.6	2.4	0.64	1.2	1.0
O=C(CCCc1c[nH]c2ccccc12)NCCc1c[nH]c2ccccc12	x	2	-0.5	3.3	0.66	-5.0	-0.1
N#CC1=C(N)Oc2cc(O)c(C=Nc3ccccc3)cc2C1c1ccccc1 (stereo unspecified)	x	4	-0.5	0.5	0.66	4.2	-6.3
CN(CC1CCCO1)S(=O)(=O)c1ccc(C(=O)Nc2nc3cc4c(cc3s2)OCO4)cc1 (stereo unspecified)	x	11	0.0	-6.9	0.77	2.0	-2.7
CN1C=CC=C/C1=C1\SC(=S)N(CC(=O)O)C1=O	x	-1	0.1	18	0.69	-0.8	3.3
Cc1cc(/C=C(\C#N)C(=O)OCC(=O)Nc2ccc(OC(F)F)cc2)c(C)n1CC(C)C	1%	11	-0.1	-9.8	0.72	-3.3	-2.2
COc1cccc(N2CCN(C3CC(=O)N(c4cccc(Cl)c4)C3=O)CC2)c1 (stereo unspecified)	4%	7	-0.3	0.0	0.69	1.4	5.8
CC(=O)c1cccc(NC(=O)CSc2ccc(-c3ccccn3)nn2)c1	x	-13	0.7	2.7	0.61	0.3	0.4
COc1ccc(-c2nc(SC(C)C(=O)NCC3CCCO3)n[nH]2)cc1 (stereo unspecified)	5%	-10	-0.2	3.1	0.71	-4.3	1.0
Fc1cccc(Nc2c3c(nc4ccccc24)CCC3)c1	x	-6	0.2	-25	0.6	5.2	-3.5
CS(=O)(=O)N1CCN(c2ccccc2NC(=O)c2cccs2)CC1	23%	-4	0.5	-3.3	0.71	-1.4	-1.3
O=C(NCC1CCCO1)C1CCCN(S(=O)(=O)c2cccc(C(F)(F)F)c2)C1 (stereo unspecified)	x	6	0.2	2.9	0.67	3.5	0.1
CCc1nc2nc(C)c(NS(=O)(=O)c3ccc(C4CCCCC4)cc3)c(=O)n2[nH]1	x	5	0.7	-0.4	0.67	1.8	-2.9
CSc1sc(-c2ccnc(SCCS(C)(=O)=O)n2)c(-c2ccccc2)c1C#N	-24%	10	0.3	-187	0.69	-0.1	-1.3
C/C(=N/NC(=O)CNC(=O)c1ccccc1)c1ccc(C)cc1	-10%	-5	-0.1	x	x	0.0	1.7
COc1cccc(OCC(=O)NNC(=O)c2cnccn2)c1	12%	3	-0.8	-0.4	0.67	-0.1	0.7
O=C(O)c1cc(O)c2c(c1)C(=O)c1cc(O)cc(O)c1C2=O	x	2	0.4	16	0.7	-29	3.8
O=C(COc1ccc(Cl)cc1)Nc1nc(-c2ccc(S(=O)(=O)N3CCOCC3)cc2)cs1	-28%	8	-0.1	-2.0	0.72	-0.6	-1.3
O=C(COC(=O)CSc1ccc([N+](=O)[O-])cc1)NCC1CCCO1 (stereo unspecified)	-4%	7	-0.3	5.6	0.7	0.3	3.2
CC(=Nc1ccccc1)c1sc2ccccc2c1O	-5%	3	-5.3	1.0	0.62	8.8	-0.5
O=C(Nc1cccc2cccnc12)C1CCCC1	x	-7	0.5	2.5	0.66	2.2	x
COC(=O)[C@@]1(Cc2ccccc2)[C@H]2C(=O)N(C)C(=O)[C@H]2[C@H]2CN=C(SCC3CC3)N21	-6%	-7	x	2.0	0.69	-0.1	x
Cn1c(SCC(=O)Nc2ccc(Cl)cc2)nc(O)cc1=O	-14%	5	-1.3	13	0.68	-1.8	0.4
CC12CN3CC(C)(CN(C1)C3c1ccc(Br)cc1)C2=O (stereo unspecified)	-7%	-3	0.0	0.4	0.69	-2.4	1.4
Cn1c(=O)c2c(ncn2CC(=O)N2CCN(c3cccc(Cl)c3)CC2)n(C)c1=O	-5%	4	0.3	3.0	0.73	-0.9	0.6

Arranged by SMILES length (highest first): part of the list above.
structure	Vif TR-FRET	Beta2AR agonist	Bfl-1 A1 inh	UCH37 inh	Ecoli growth	HNF4A DNA FP	LANA-H2A inh
Cn1c(=O)c2c(ncn2CC(=O)N2CCN(c3cccc(Cl)c3)CC2)n(C)c1=O	-5%	4	0.3	3.0	0.73	-0.9	0.6
CC12CN3CC(C)(CN(C1)C3c1ccc(Br)cc1)C2=O (stereo unspecified)	-7%	-3	0.0	0.4	0.69	-2.4	1.4
O=C(Nc1cccc2cccnc12)C1CCCC1	x	-7	0.5	2.5	0.66	2.2	x

Following part.
structure	Vif TR-FRET	Beta2AR agonist	Bfl-1 A1 inh	UCH37 inh	Ecoli growth	HNF4A DNA FP	LANA-H2A inh
O=C(Nc1cccc(S(=O)(=O)NC2=NCCCCC2)c1)c1cc(-c2ccc(Cl)cc2)nc2ccccc12	17%	-3	-1.2	0.3	0.71	7.8	-3.8
c1ccc(Nc2nc(NCCN3CCOCC3)nc(Nc3ccccc3)n2)cc1	u	-3	1.9	3.6	0.64	-1.8	-1.5
O=C(N/N=C/c1ccc(Br)o1)c1cc([N+](=O)[O-])cc([N+](=O)[O-])c1	1%	-1	0.3	x	x	-1.6	-1.5
CC(=O)NS(=O)(=O)c1ccc(NC(=O)C2C3C=CC(C3)C2C(=O)O)cc1 (stereo unspecified)	-1%	-6	0.6	2.8	0.64	0.1	-7.1
O=C(COC(=O)CNS(=O)(=O)c1c(F)cccc1F)NC(=O)NC1CCCCC1	x	-2	-0.2	4.5	0.63	1.6	0.0
O=C(c1ccc(Cl)c([N+](=O)[O-])c1)N1CCN(C(=O)c2ccco2)CC1	-4%	5	-0.1	5.0	0.7	1.9	2.6
CCCCn1ccnc1C(=O)c1cccc(S(=O)(=O)N2c3ccccc3CC2C)c1 (stereo unspecified)	21%	8	0.4	4.9	0.7	-0.3	5.0
CCOC(=O)N1CCC(Nc2nc(OC)nc(OC)n2)CC1	4%	0	-0.5	2.8	0.68	-1.6	-1.0
CCn1c(=O)c2c3c(sc2n2c(SCc4ccc(F)cc4)nnc12)CCCC3	x	5	-1.1	0.3	0.68	1.1	1.7
COc1ccc(C)cc1NC(=O)C(OC(=O)CNC(=O)c1ccc(Oc2ccccc2)cc1)c1ccccc1 (stereo unspecified)	-4%	-8	0.1	1.9	0.72	-3.4	-1.1
CC(C)(C)C(=O)N1CCC(O)(CS(=O)(=O)Cc2ccccc2Cl)CC1	5%	12	1.6	3.4	0.69	0.3	2.9
O=C(CCCSc1nc(-c2ccco2)cc(C(F)(F)F)n1)NCc1cccs1	10%	-3	-0.7	2.6	0.78	4.9	6.4
COc1ccc(NC(C)c2cc(Cl)ccc2O)cc1 (stereo unspecified)	10%	-6	0.7	4.8	0.74	2.1	-8.9
Cc1cccc(-c2noc(CN(C(=O)/C=C/c3ccccc3Cl)C(C)C)n2)c1	x	2	0.3	-1.5	0.69	-2.9	x
CCN1CCN(C(c2cccnc2)c2cc(Cl)c3cccnc3c2O)CC1 (stereo unspecified)	u	8	0.8	2.2	0.66	2.8	0.4
O=C(NCC1(c2ccccc2)CCCC1)C1(c2ccccc2)CCCC1	2%	2	0.8	-0.2	0.74	-2.9	1.9
CC(C)(C)c1ccc(C2CC2C(=O)N/N=C\c2ccc[nH]2)cc1 (stereo unspecified)	x	54*	0.0	x	x	6.2	2.8
Cc1ccccc1OCC(=O)NNC(=O)Cc1ccc(S(=O)(=O)N2CCOCC2)s1	0%	-1	0.2	0.4	0.69	0.7	-3.0
C=CCOc1nc(N2CCCC2)nc(N2CCCC2)n1	0%	-5	0.5	0.8	0.69	-2.1	0.5
COC(=O)c1ccc2c(=O)n(CCN3CCOCC3)c(SCC(=O)NCc3ccccc3)nc2c1	-15%	-1	-0.2	2.6	0.72	-0.2	-5.6
COC1CCN(C(=O)c2ccc3oc(C(C)C)nc3c2)CC1	x	-14	-0.4	3.1	0.7	-1.4	-1.6
C=CCN(CC=C)c1ccc(N2C(=O)C3CCCCC3C2=O)cc1[N+](=O)[O-] (stereo unspecified)	x	17	0.2	3.6	0.7	0.6	0.2
CCCCn1c(N)c(N(CCOC)C(=O)c2cc3c(s2)CCC(C)C3)c(=O)[nH]c1=O (stereo unspecified)	11%	1	0.0	-1.8	0.68	3.9	-0.9
CN1CCN(c2ccc(NC(=O)COc3ccccc3[N+](=O)[O-])cc2)CC1	x	-21	0.0	5.1	0.62	1.4	-1.3
Cc1cc(Cl)ccc1NC(=O)CCN1C(=O)C2CCCCC2C1=O (stereo unspecified)	-5%	1	-0.2	0.3	0.66	-0.2	0.9
Nc1ncc(CCN2CCOCC2)c(-c2ccc(F)cc2)n1	0%	-3	0.5	0.4	0.72	-3.1	0.7
CCN(CCCNC(=O)CC(C(=O)N1CCc2ccccc21)n1ccnc1)c1cccc(C)c1 (stereo unspecified)	3%&0%	-9	0.5	5.3	0.7	0.4	-0.6
